Compound activity from PubChem BioAssay.
RE007 growth inh: less growth of the S. pombe RE007 Vpr strain; 0.21% of 360,000 active; Potency, µM (highest dose often 92.2 µM), for the others: top-dose activity change, negative = less growth; AID 651644; S. pombe RE007 Vpr strain, BacTiter-Glo ATP luminescence, 24 h; control for the full effect not named in the record; active = well fitted falling curve with a large enough effect; inconclusive = small, poorly fitted or top-dose-only effect; inactive = no such curve, though single readings can be large or run the other way;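 note: % is set by controls: 0 for no effect and ±100 for the full control effect; nearly all actives have a fitted effect of over 50% in size; the assay follows cell death caused by Vpr and the record does not say whether a fall means rescue or toxicity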
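Fission yeast strain RE007, carrying one chromosomally integrated HIV-1 vpr copy, was seeded at OD 0.01 in PMG+AL medium with 23 nL pinned compound. After 24 h at 30 °C and 99% humidity, viability was read by BacTiter-Glo luminescence.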
2A StopGo: FMDV 2A StopGo reporter, luciferase signal; human cells with a luciferase reporter of 2A StopGo recoding; control for the full effect not named in the record; 1.2% of 410,000 active; Potency, µM (series often up to 57.9 µM), for inactives: top-dose signal change, negative = less light; AID 1159524; active = well fitted falling curve with a large enough effect; inconclusive = small, poorly fitted or top-dose-only effect; inactive = no such curve, though single readings can be large or run the other way; tested in HEK293T cells; note: % is set by controls: 0 for no effect and ±100 for the full control effect; nearly all actives have a fitted effect of over 45% in size; luciferase light after 4 h
SARS PLpro yeast: inhibitors of SARS-CoV papain-like protease in yeast. 0.19% of 330,000 active. S. cerevisiae expressing SARS-CoV PLpro, growth rescue; control for the full effect not named in the record. Potency, µM (highest dose often 32.9 µM), for the others: top-dose activity, positive = growth rescue. AID 485353; active means well fitted rising curve with a large enough effect; inconclusive means small, poorly fitted or top-dose-only effect; inactive means no such curve, though single readings can be large or run the other way; note: 0% is about no effect; nearly all actives have a fitted effect of over 55% in size; growth read by luminescence after 48 h
Starred values were filed as active, the others as inactive; ? = inconclusive; [ ] = remark or other dose. Potency is the fitted concentration of half-maximal effect. The list is partial; rates above refer to the full screens.

SMILES | RE007 growth inh | 2A StopGo | SARS PLpro yeast
COc1cc2c(cc1OC)C(=O)N1[C@H]3c4cc(Cl)ccc4OC[C@@H]3[C@H](c3ccccc3)[C@]1(C)C(=O)N2 | 6% | ? | -6%
CC(C)n1ncc2c(C(=O)N3CCN(c4ccccc4)CC3)cc(-c3ccccc3)nc21 | -2% | 0% | 3%
COc1ccc(NC(=O)N(C)C[C@H]2Oc3ccc(NC(=O)C4CC4)cc3CC(=O)N([C@@H](C)CO)C[C@@H]2C)cc1 | -6% | -5% | 0%
COc1ccc(C(CNC(=O)c2cccc(S(=O)(=O)N3CCCCC3)c2)N2CCCC2)cc1 (stereo not drawn) | 7% | -8% | 0%
COc1cc(CN2c3ccccc3C(=O)CS2(=O)=O)cc(OC)c1 | 13% | -3% | 17%
CC(C)c1cccc(-c2ccc3c(c2)S(=O)(=O)c2cccc(C(=O)NC4CCCC4)c2C3=O)c1 | 10% | -23% | -15%
NC(=O)c1cc(Cl)ccc1OCC(=O)Nc1ccc2c(c1)OCO2 | -8% | 15% | -9%
O=C(COC(=O)c1ccc(C(F)(F)F)cc1)Nc1cccc(S(=O)(=O)N2CCCCC2)c1 | 2% | -16% | 6%
Cc1onc(-c2ccccc2)c1C(=O)NNC(=O)c1ccccc1 | 4% | 7% | -6%
NS(=O)(=O)c1ccc(N2C(=O)C3CC=CCC3C2=O)cc1 (stereo not drawn) | 1% | -1% | 5%
O=C(COC(=O)C12CC3CC(CC(O)(C3)C1)C2)Nc1ccc(Cl)cc1F | -4% | 26% | -1%
COc1ccc(S(=O)(=O)Nc2cccc3c2O[C@H](CN(C)S(=O)(=O)c2cn(C)cn2)[C@@H](C)CN([C@H](C)CO)C3=O)cc1 | 2% | 5% | 2%
CC(C)C(NC(=O)c1ccco1)C(=O)OCC(=O)NCCc1ccccc1 (stereo not drawn) | 19% | 32%[activator] | -4%
CS(=O)(=O)c1ccc(Cl)c(NC(=O)CSc2nnc(C3CC3)n2C2CC2)c1 | -10% | -19% | -1%
NC(=O)c1ccc(NC(=O)CN2CCN(S(=O)(=O)c3ccc4ccccc4c3)CC2)cc1 | -5% | -4% | 2%
COc1ccccc1-n1c(SCC(=O)NC2CC2)nc2ccccc2c1=O | 15% | -16% | -4%
O=C(NCCCN1CCCC1=O)c1ccc(NS(=O)(=O)c2ccc(F)cc2)cc1 | 6% | -6% | -3%
C=CCC[C@H](Cc1ccc(F)cc1)C(=O)OC[C@@H](NC(=O)[C@@H](CC=C)CC(=O)N[C@@H](CO)Cc1ccccc1)C(C)(C)C | 4% | -1% | -3%
COc1cc(OC)cc(-c2sc3ccc(OC)cc3c2C#CC2(N)CCCCC2)c1 | -24% | -29% | -1%
FC(F)(F)c1ccccc1NC(=S)N1CCN(c2ccccn2)CC1 | -7% | -16% | -1%
Cc1noc(C)c1S(=O)(=O)N(C)C[C@H]1Oc2ccc(NS(=O)(=O)c3ccc(F)cc3)cc2C(=O)N([C@H](C)CO)C[C@@H]1C | -5% | -16% | 1%
CN(c1ccccc1)S(=O)(=O)c1ccc2c(c1)OCCO2 | 10% | -5% | 5%
CCN1CCN(C(=S)NC(=O)/C=C/c2cccs2)CC1 | -25% | 21% | 3%
COc1ccc(NC(=O)CSc2nc(N)cc(N)n2)cc1S(=O)(=O)N1CCCCC1 | 9% | 45%[activator] | -1%
CC(C)[C@@H]1CN=C(N)N1C[C@@H]1CCCN1C[C@H](C)N1C[C@@H](Cc2ccccc2)N(CCc2ccc(Cl)c(Cl)c2)C1=N | 27% | -3% | 3%
COc1cccc(COC(=O)Cc2ccc(S(=O)(=O)N3CCOCC3)s2)c1OC | 1% | -23% | 3%
CC1(C)C[C@H](O)[C@]2(CO)CC[C@]3(C)C(=CCC4[C@@]5(C)CC[C@H](O)C(C)(C)C5CC[C@]43C)[C@@H]2C1 (stereo partly drawn) | 10% | -16% | -3%
CC[C@]1(C(=O)OC)[C@H]2C(=O)N(C)C(=O)[C@H]2[C@H]2CN=C(SCc3ccc(Cl)cc3)N21 | -4% | -16% | ?
COC(=O)C1=C(c2ccc(F)cc2OCc2ccccc2)C[C@@H]2CC[C@H]1N2C(=O)NCc1ccc(OC)cc1 | 1% | -28% | 3%
CCN(CC)C(=O)Cn1cc(S(=O)(=O)CC(=O)NCc2ccc3c(c2)OCO3)c2ccccc21 | -4% | 9% | -5%
O=C(Nc1ccc(C(F)(F)F)cc1)c1cccc(-n2cnnn2)c1 | 6% | -12% | -1%
O=C(COC(=O)/C=C/c1cccc(Br)c1)NCc1cccs1 | -10% | -12% | 2%
O=C(CN1C(=O)NC2(CCCCCCC2)C1=O)Nc1ccc(Cl)cc1 | -7% | -29% | -4%
C=CCOc1ccc(CN(C)Cc2nc3cc(C(F)(F)F)ccc3c(=O)[nH]2)cc1 | -4% | -20% | -2%
CCCCN(CC(=O)NC1CC1)S(=O)(=O)c1ccc(OCC)cc1 | 9% | -21% | -4%
Cc1ccc(S(=O)(=O)Nc2ccc3nc(C)sc3c2)c(C)c1 | 1% | 24% | 6%

Exported with values under each structure: 5 of the compounds above
Second line of a record: RE007 growth inh	2A StopGo	SARS PLpro yeast
COc1cccc(COC(=O)Cc2ccc(S(=O)(=O)N3CCOCC3)s2)c1OC
  1%	-23%	3%
CC[C@]1(C(=O)OC)[C@H]2C(=O)N(C)C(=O)[C@H]2[C@H]2CN=C(SCc3ccc(Cl)cc3)N21
  -4%	-16%	?
Cc1ccc(S(=O)(=O)Nc2ccc3nc(C)sc3c2)c(C)c1
  1%	24%	6%
COC(=O)C1=C(c2ccc(F)cc2OCc2ccccc2)C[C@@H]2CC[C@H]1N2C(=O)NCc1ccc(OC)cc1
  1%	-28%	3%
O=C(Nc1ccc(C(F)(F)F)cc1)c1cccc(-n2cnnn2)c1
  6%	-12%	-1%

Going on with the list:
SMILES | RE007 growth inh | 2A StopGo | SARS PLpro yeast
C/C=C(\C)C(=O)OC(C)(C)[C@@H]1Cc2cc3ccc(=O)oc3cc2O1 | -5% | ? | -2%
COc1ccc(S(=O)(=O)Nc2cccc3c2O[C@H](CN(C)Cc2ccc(C(=O)O)cc2)[C@@H](C)CN([C@H](C)CO)C3=O)cc1 | 19% | -12% | -1%
COc1cc(C(C)=O)ccc1OCC(=O)OC(C)C(=O)c1ccc(F)cc1 (stereo not drawn) | 2% | -6% | 0%
CCOC(=O)CNc1nc(Cl)c(C#N)s1 | 1% | 1% | 0%
CN1CCN(c2cnn(-c3ccccc3)c(=O)c2Br)CC1 | 2% | 33%[activator] | -1%
CCOc1ccc(NC(=O)CN2C(=O)NC3(CCCC3)C2=O)cc1S(=O)(=O)N1CCCCC1 | 5% | -15% | -5%
CCOc1ccccc1N1CCN(C(=O)C2=CC=CN3CCS(=O)(=O)N=C23)CC1 | 5% | -2% | 2%
Cc1nn(-c2ccccc2)c(C)c1NC(=O)COc1cc(F)ccc1[N+](=O)[O-] | -14% | 25µM* | -10%
COc1ccc2cc(-c3ccccc3F)ncc2c1 | ? | -41% | 1%
COc1ccccc1OCCNC(=O)C(CCSC)NC(=O)COc1ccccc1 (stereo not drawn) | 0% | -6% | -6%
CC1CC(C)CN(S(=O)(=O)c2ccc3c(c2)CC(=O)N3)C1 (stereo not drawn) | -11% | -4% | -2%
COc1ccc(-c2c3c(cc4ncn(Cc5ccccc5)c24)COC3=O)cc1 | 31% | -10% | 0%
Cc1cccc(OCCOC(=O)c2ccc(F)c(S(=O)(=O)N3CCOCC3)c2)c1 | 7% | ? | 8%
CCCNC(=O)c1onc(CS(=O)(=O)c2cc(C)cc(C)c2)c1C(=O)NCCC | -21% | 0% | -40%
CCCCNc1c(-c2ccc(-c3cccc(Cl)c3)cc2)nc2ccc(Cl)cn12 | -16% | -2% | 8%
O=C(c1ccc2c(c1)OCCO2)N1CCN(Cc2c(F)cccc2Cl)CC1 | 4% | 3% | 2%
CC(C(=O)Nc1ccc(N2CCOCC2)cc1)N1C(=O)NC(C)(C)C1=O (stereo not drawn) | -1% | 12% | -6%
Cc1cc(Cl)nc(Cl)c1C(=O)NC(=O)NCCC(C)C | 10% | -15% | -1%
NC(=O)NC(CC(=O)NNC(=O)c1ccccn1)c1ccccc1Cl (stereo not drawn) | -10% | -10% | -6%
COc1ccccc1NS(=O)(=O)c1ccc(C(=O)N2CCN(c3ccccc3)CC2)cc1 | -2% | ? | -2%
Cc1ccc(S(=O)(=O)N2CCN(C(=O)COC(=O)CCc3ccccc3)CC2)c(C)c1 | -9% | -4% | -1%
CC(C(=O)NC1CCCc2ccccc21)N1C(=O)C2CCCCC2C1=O (stereo not drawn) | -12% | 6% | 1%
CCc1noc(C)c1C(=O)Oc1ccc(N(C)S(=O)(=O)c2ccc(C)cc2)cc1 | -11% | ? | 12%
CN(C)S(=O)(=O)c1ccc(Cl)c(NC(=O)COC(=O)CNC(=O)c2ccco2)c1 | 12% | 6% | 1%

Only RE007 growth inh (2 entries from above):
Compound	RE007 growth inh
Cc1ccc(S(=O)(=O)N2CCN(C(=O)COC(=O)CCc3ccccc3)CC2)c(C)c1	-9%
CC(C(=O)NC1CCCc2ccccc21)N1C(=O)C2CCCCC2C1=O (stereo not drawn)	-12%

The results go on.
SMILES | RE007 growth inh | 2A StopGo | SARS PLpro yeast
Cc1ccc(CNC(=O)CC(NC(=O)c2ccccc2)c2ccccc2)cc1 (stereo not drawn) | 2% | 0% | 4%
CCC(=O)N1N=C(c2ccc(NS(=O)(=O)c3ccccc3)cc2)CC1c1ccco1 (stereo not drawn) | -11% | -10% | 4%
CC(=O)Nc1sc(C)c(C)c1C(=O)OCC(=O)NCc1ccc(F)cc1 | -7% | -24% | 3%
Cc1cc(C(=O)CN2C(=O)NC(CCS(C)(=O)=O)C2=O)c(C)n1C1CC1 (stereo not drawn) | 0% | -15% | 0%
CC(NC(=O)COC(=O)COc1ccc(C(=O)c2ccccc2)cc1)c1ccccc1 (stereo not drawn) | 22% | -4% | 0%
O=C(NCC1CCCO1)c1cc([N+](=O)[O-])ccc1N1CCC(Cc2ccccc2)CC1 (stereo not drawn) | 7% | ? | -16%
CCOc1ccc(Oc2ccc(Cl)cc2N)cc1 | 37% | 15% | -1%
COc1ccc(/C=N/Nc2ncccc2[N+](=O)[O-])c(OC)c1 | -9% | 0% | 1%
COCc1[nH][nH]c(=O)c1/C=N/N1CCOCC1 | 11% | -5% | 0%
COc1ccccc1CNC(=O)[C@@H]1CCCN1S(=O)(=O)c1ccc(C)cc1 | 12% | -20% | 3%
O=C(CN1CCN(Cc2ccccc2)CC1)NNC(=O)c1ccccc1 | -1% | -6% | 0%
COc1ccc(C(CNC(=O)c2cc(S(=O)(=O)NCc3ccco3)ccc2C)N(C)C)cc1 (stereo not drawn) | -10% | 49%[activator] | 2%
CCCCN1C(=N)N([C@@H](C)CN2CCC[C@H]2CN2C(N)=NC[C@H]2CC(C)C)C[C@H]1Cc1ccccc1 | -21% | -6% | -2%
COc1ccccc1CNC(=O)COC(=O)c1cccc(-n2cnnn2)c1 | -22% | -16% | 7%
Cc1ccc(S(=O)(=O)Nc2ccc(-n3cnnn3)cc2)c(C)c1 | -6% | 93%[activator] | 1%
COc1ccc(NC(=O)CN2C(=O)C(=O)N(C3CCCC3)C2=O)c(OC)c1 | 16% | -15% | -8%
CC[C@@]1(C(=O)OC)N[C@H](CN(C)C(C)=O)[C@@H]2C(=O)N(Cc3ccccc3)C(=O)[C@@H]21 | 12% | -12% | -6%
O=C(Nc1ccccc1)c1nccn1Cc1ccc(F)cc1 | -3% | 46%[activator] | -4%
C=C[C@@H]1c2c(F)cccc2N(S(=O)(=O)c2ccc(C)cc2)[C@H](c2ccc(C(=O)OC)cc2)C1(C#N)C#N | 4% | 0% | 6%
CC(=O)N/C(=C\c1ccccc1)C(=O)OCC(=O)Nc1ccc(C)c(S(=O)(=O)N(C)C)c1 | 1% | 83%[activator] | 7%
Cc1ccc(Nc2c(-c3ccccn3)nc3cccc(C)n23)cc1 | ? | ? | -33%
CC(C)NC(=O)N(C)C[C@H]1Oc2ccc(NC(=O)Nc3ccccc3)cc2C(=O)N([C@@H](C)CO)C[C@@H]1C | -4% | -5% | 2%
O=C(/C=C/c1ccc(Cl)cc1)c1ccc([N+](=O)[O-])o1 | 3% | ? | 0%
COC(=O)[C@@]1(Cc2ccccc2)[C@H]2C(=O)N(Cc3ccccc3)C(=O)[C@H]2[C@H]2CN=C(SCc3ccc(Cl)cc3)N21 | -7% | ? | -23%
Cc1ccc(C)c(S(=O)(=O)N2CCN(C(=O)[C@H](C)N3C(=O)C4CC=CCC4C3=O)CC2)c1 (stereo partly drawn) | -17% | -4% | -2%
O=C(CSc1c2c(nc3ccc(Cl)cc13)CCCC2)NCCCN1CCOCC1 | -21% | ? | 1%
C=CCn1c(SCC(=O)Nc2ccc(NC(C)=O)cc2)nc2sc(C)c(C)c2c1=O | 14% | -13% | 3%
NC(=O)c1ccsc1NC(=O)COC(=O)CNC(=O)c1ccc(F)cc1 | 1% | -6% | -6%
CCOc1ccc(/C=N/OCC(=O)Nc2ccc3c(c2)OCO3)cc1 | 2% | -15% | -8%
